Menin-MLL FL inh: qHTS Assay for Inhibitors Targeting the Menin-MLL Interaction in MLL Related Leukemias: Competition With Fluorescein Labeled MLL-derived Peptide. 290,000 tested, under 10 active. Fluorescence polarization, fluorescein-MLL peptide displacement from menin. FP activity change, % at 61.4 µM. AID 1766, 2009; inconclusive = falling polarisation curve, or a change in total fluorescence; inactive = total fluorescence flat and polarisation flat or rising; no compound was filed as active; the % refers to the polarisation; negative = inhibition;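 also: % of control where 0% means no effect; inhibitors lower the polarisation; unlabelled MLL peptide was the positive control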
PINK1 modulator: A Quantitative High throughput Screen to Identify Chemical Modulators of PINK1 Expression | PINK1 immunofluorescence, high-content cytometry, 24 h | 410,000 tested, 0.2% active | Potency, µM (doses to about 76.6 µM), inactives show at the highest dose activation (PINK1 increase), actives largely listed as activators; active = well fitted activation curve with a large enough effect; inconclusive = small, poorly fitted or top-dose-only effect; inactive = flat fitted curve, though single readings scatter; cell line not stated here;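 also: potency is read from the fitted curve at half-maximal effect; % of control where 0% means no effect; nearly all actives have a fitted effect of over 65% in size; a mitochondrial uncoupler was the plate control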
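Measures PINK1 amount and localization on or inside mitochondria by immunofluorescence. Stable cells get compounds at 5 concentrations for 24 hours before fixation and staining; CCCP controls included.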
gsp agonist: qHTS for Agonist of gsp, the Etiologic Mutation Responsible for Fibrous Dysplasia/McCune-Albright Syndrome: qHTS; AID 624287, 2012; gsp mutant cells, cAMP HTRF, 30 min; control for the full effect not named in the record; 340,000 tested, 0.13% active; Potency, µM (series often up to 76.9 µM), for the others: at the top dose activation (cAMP increase), most hits filed as activators; active = well fitted activation curve with a large enough effect; inconclusive = small, poorly fitted or top-dose-only effect, or another doubt; inactive = no such curve, though single readings can be large or run the other way; cell line not stated here;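 also: phosphodiesterase inhibitor Ro 20-1724 added with compounds to block cAMP breakdown; potency is read from the fitted curve at half-maximal effect; nearly all actives have a fitted effect of over 60% in size; about a fifth of the inactives were tested at one dose only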
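Cells in DMEM/10% FBS with G418 were pretreated with compounds in DMSO plus […] (300 uM stock) for 30 min at 37C. cAMP was measured by HTRF (cAMP-d2 plus anti-cAMP antibody-K) after 30 min at room temperature.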
ClpP mod: qHTS Assay for Activators of ClpP | ATP-dependent Clp protease proteolytic subunit (Bacillus subtilis (strain 168)), P80244 | purified B. subtilis ClpP, FRET peptide cleavage, 20 min | Potency, µM (top dose mostly 57.5 µM), for the others: at the top dose activity change, negative = active | 340,000 tested, 1.9% active | AID 651965, 2013; active = well fitted falling curve with a large enough effect; inconclusive = small, poorly fitted or top-dose-only effect; inactive = no such curve, though single readings can be large or run the other way; also: potency is read from the fitted curve at half-maximal effect; the source files actives as falling curves though it sought activators and does not explain the sign; nearly all actives have a fitted effect of over 65% in size; many hits overshoot -100%
Target sequence (P80244 whole entry, looked up): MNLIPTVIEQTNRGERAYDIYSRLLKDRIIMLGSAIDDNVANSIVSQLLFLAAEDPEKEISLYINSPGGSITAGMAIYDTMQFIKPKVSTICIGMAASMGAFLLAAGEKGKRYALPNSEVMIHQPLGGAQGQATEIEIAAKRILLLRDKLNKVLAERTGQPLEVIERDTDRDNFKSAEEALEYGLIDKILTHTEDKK
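FRET quenching reversal measured ClpP activation: 10 microg/mL B. subtilis ClpP at pH 8 with the FRET-FV decapeptide, read at 430 nm after 320 nm excitation. The 20-min minus 0-min signal was scaled between DMSO/no-enzyme wells and ADEP (5.8 microM final).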
D2 ag: Beta-Arrestin HTS for Positive Allosteric Modulators of the Human D2 Dopamine Receptor: Agonists | AID 624465, 2012 | DiscoveRx PathHunter D2 beta-arrestin, luminescence, 90 min; 100% = 57 uM dopamine signal | activation, % (test concentration not listed) | 360,000 tested, 0.084% active | D(2) dopamine receptor (Homo sapiens), P14416; in the data active = activation above about 40%; inconclusive = about 15% to 40%; inactive = below about 15%; also: compound concentration not given in the record; the text of the record calls up to 30% inactive
Target sequence (P14416 whole entry, looked up): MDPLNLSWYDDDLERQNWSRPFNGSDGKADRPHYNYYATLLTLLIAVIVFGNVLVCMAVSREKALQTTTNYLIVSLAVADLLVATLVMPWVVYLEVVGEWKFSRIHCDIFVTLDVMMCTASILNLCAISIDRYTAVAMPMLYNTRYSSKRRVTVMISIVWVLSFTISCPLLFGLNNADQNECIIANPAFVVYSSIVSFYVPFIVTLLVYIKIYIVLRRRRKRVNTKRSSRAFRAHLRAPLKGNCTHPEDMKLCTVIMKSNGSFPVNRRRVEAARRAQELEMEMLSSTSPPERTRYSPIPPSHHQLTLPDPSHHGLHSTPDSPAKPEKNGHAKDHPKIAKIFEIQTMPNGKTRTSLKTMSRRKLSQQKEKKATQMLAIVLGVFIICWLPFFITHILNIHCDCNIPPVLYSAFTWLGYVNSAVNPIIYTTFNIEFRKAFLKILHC
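Agonist mode: compounds alone added to overnight-plated D2 PathHunter cells for 90 min at 37 C, with 57 uM final dopamine (EC100) defining full response. Beta-arrestin recruitment detected by chemiluminescent reagent, read after 1 h at ambient temperature.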
Sfp inh: qHTS Assay for Inhibitors of Bacillus subtilis Sfp phosphopantetheinyl transferase (PPTase); 310,000 tested, 3.5% active; Potency, µM, inactives show max response, negative = inhibition, hits mostly inhibitors; AID 1490, 2009; 4'-phosphopantetheinyl transferase ffp (Bacillus subtilis), Q9F4F7; Biochemical Sfp PPTase activity, qHTS; active = well fitted inhibition curve with a large enough effect; inconclusive = small, poorly fitted or top-dose-only effect, or another doubt; inactive = no such curve, though single readings can be large or run the other way;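 also: the enzyme is Sfp with the accession as filed and its product quenches rhodamine fluorescence; potency is read from the fitted curve at half-maximal effect; 0% = enzyme reaction without inhibitor and -100% = no enzyme wells; top concentration of the series not given in the record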
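Reaction rates are the 30-min fluorescence difference (ex 525, em 598 nm) in wells containing 15 nM Sfp, 5 uM rhodamine-CoA and 12.5 uM BHQ-2-YbbR at pH 7.6 with 10 mM MgCl2.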
gsp antagonist: qHTS for Antagonists of gsp, the Etiologic Mutation Responsible for Fibrous Dysplasia/McCune-Albright Syndrome: qHTS; gsp-mutant cells, cAMP HTRF, 30 min; control for the full effect not named in the record; Potency, µM (top dose mostly 76.9 µM), without a hit: top-dose activity change, negative = inhibition, usual class: inhibitors; 340,000 tested, 0.4% active; active = falling curve of any shape with a large fitted effect; inconclusive = falling curve, mostly with a smaller effect; inactive = flat or rising curve; cell line not stated here;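 also: intracellular cAMP measured with PDE inhibitor Ro 20-1724 present during compound exposure; potency is read from the fitted curve at half-maximal effect; % is scaled to controls: 0 for no effect and ±100 for the full control effect; nearly all actives have a fitted effect of over 65% in size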
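HTRF cAMP measurement after 30 min RT detection following 30 min, 37C compound treatment alongside […] (added as 300 uM solution) in G418-selected cells seeded at 2000/well and grown 16–24 h.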
Starred values were filed as active, the others as inactive; ? = inconclusive; nt = not tested or not shown; [ ] = remark or other dose.

SMILES | Menin-MLL FL inh | PINK1 modulator | gsp agonist | ClpP mod | D2 ag | Sfp inh | gsp antagonist
CCCCCOc1ccc(CSc2n[nH]c(C)n2)cc1 | 5.9 | 2.4% | 1%[15.4 µM] | nt | -1.5 | -30% | -6%
Cc1cc(F)ccc1C(O)c1ncc(-c2ccccc2F)[nH]1 (stereo unspecified) | nt | 0.3% | nt | -0.7% | -2.8 | nt | nt
COc1ccc2cc(CN(CCCN3CCOCC3)Cc3nnnn3C3CCCCC3)c(=O)[nH]c2c1 | -1.2 | -2.9%[38.3 µM] | -2% | -10% | -3.5 | -6% | 1%
Cc1cnc(CNc2ccnc(-c3ccc(N(C)C)cc3)n2)cn1 | 3.0 | -1.0% | nt | nt | nt | -29% | nt
COCc1c(C(=O)OCc2c(C)noc2C)oc2ccccc12 | -1.0 | 2.3% | -4%[15.4 µM] | nt | -2.5 | 11% | -2%
Cc1cc(C)c(CSc2ncc(-c3ccc([N+](=O)[O-])cc3)[nH]2)c(C)c1 | 6.6 | ? | -11% | -7.0% | -1.1 | 26% | -20%
CCc1nnc(NC(=O)CSc2nc(-c3ccc(F)cc3)cc(-c3ccccc3)c2C#N)s1 | 5.8 | 8.7% | ? | -14% | 1.0 | 32µM* | -8%
O=C(/C(=C(\[O-])c1ccccc1)[n+]1ccc2ccccc2c1)c1ccc([N+](=O)[O-])cc1 | 3.7 | 0.8% | -13%[15.4 µM] | 0.4% | -7.0 | -7% | 11%
CCOC(=O)c1c(C)[nH]c(C2=NNC(=Nc3ccc(OCC)cc3)SC2)c1C | 8.6 | 26% | -21% | -4.8% | -2.5 | 79µM* | -22%
CCc1ccc(-c2cc(C)no2)cc1S(=O)(=O)N1CCOc2ccccc21 | nt | 3.7% | 6% | -0.6% | 2.6 | 4% | -19%
Cc1ccc([C@@H]2CC=C(C(=O)O)[C@H](c3cccc(Cl)c3)N2S(=O)(=O)c2ccc(C)cc2)cc1 | nt | -0.4% | -12% | 2.0% | 0.2 | nt | -8%
COc1cc(C(=O)NC2CC(C)(C)NC(C)(C)C2)cc(OC)c1OC | -3.7 | -0.1% | 3% | nt | -3.8 | 6% | 5%
COc1ccc(NC(=O)CSc2nnc(-c3cccnc3)o2)c(OC)c1 | nt | 2.6% | -35%[inhibitor] | -4.9% | -1.6 | nt | 0%
Cc1ccc(-c2csc(NC(=O)c3c(C)noc3C)n2)cc1 | nt | 0.2% | -39%[inhibitor] | -8.5% | -6.5 | nt | ?
O=C(NN1C(=O)/C(=C\c2cccnc2)SC1=S)c1ccco1 | 2.7 | -0.1% | 6%[15.4 µM] | nt | -0.9 | ? | nt
Cc1ccc(OCCCOc2cccc3cccnc23)cc1C | 1.4 | 6.7% | -15% | -11% | -3.2 | 89µM* | -1%
CSc1ncccc1C(=O)N1CCCC(Nc2ccc(F)c(F)c2)C1 (stereo unspecified) | nt | -0.1% | 17% | 0.9% | -2.3 | nt | nt
COc1cc(C)c(Cl)cc1S(=O)(=O)n1ccnc1C | 1.8 | nt | -19% | 0.5% | 2.0 | -11% | -11%
Cc1nc(-c2ccc(NC(=O)Cc3ccccc3)cc2)cs1 | 2.5 | 8.1% | 33%[15.4 µM] | -0.9% | 0.8 | 13% | -26%
Cc1nnc(-c2cnn(C)c2N)n1CCCN(C)C | -1.7 | 1.2% | 14% | nt | 0.6 | 16% | -3%
O=C(Nc1ccc2ccccc2c1)c1ccc(Br)o1 | nt | 1.1% | 7% | -8.4% | -2.4 | -6% | -9%
S=C1NCCOCCOCCOCCOCCN1 | 1.4 | 2.9%[38.3 µM] | 1% | 0.6% | -4.9 | -11% | 4%
CCC(=O)Nc1cccc(C2=NOC3(C2)C[C@H](C(N)=O)N(C(=O)Cc2ccc([N+](=O)[O-])cc2)C3)c1 (stereo partly specified) | -5.6 | -1.4% | nt | 1.2% | -2.8 | 12% | 5%
CCC(C)NC(=O)CSc1nc2cc3c(cc2c(=O)n1Cc1ccco1)OCO3 (stereo unspecified) | 1.5 | 9.5% | 4%[15.4 µM] | nt | 0.7 | -27% | 8%
CCOC(=O)c1c(NC(=S)Nc2ccc(OC)cc2)sc2c1CCCCC2 | 2.4 | -0.5% | 16% | -3.4% | -3.8 | -3% | 18%
OC[C@@H]1CN(Cc2ccc3c(c2)OCO3)C[C@H](n2cnc3c(NC4CC4)ncnc32)O1 | nt | 4.2% | nt | -3.8% | -2.6 | nt | nt
COc1ccc2[nH]c3c(N4CCC(O)(c5cccc(C(F)(F)F)c5)CC4)ncnc3c2c1 | -0.2 | 11% | -8% | 32µM* | 4.5 | 7% | -6%
CN1CCN(Cc2nc3ccccc3c(=O)n2Cc2nc(-c3ccccc3F)cs2)CC1 | 3.2 | 3.8% | -10% | -0.7% | 6.4 | ? | ?
O=C(O)CC/C(=C\c1ccc(Cl)c([N+](=O)[O-])c1)c1nc2ccccc2s1 | 13 | 4.5% | -2%[15.4 µM] | 0.6% | 5.9 | -14% | ?
CCCCCC(=O)N/N=C/c1ccc(N(C)C)cc1 | 3.1 | 0.1% | ? | 28µM* | -2.5 | -4% | -13%

A draw from above in order of number of heavy atoms, smallest number first:
SMILES | Menin-MLL FL inh | PINK1 modulator | gsp agonist | ClpP mod | D2 ag | Sfp inh | gsp antagonist
Cc1nnc(-c2cnn(C)c2N)n1CCCN(C)C | -1.7 | 1.2% | 14% | nt | 0.6 | 16% | -3%
COc1ccc2[nH]c3c(N4CCC(O)(c5cccc(C(F)(F)F)c5)CC4)ncnc3c2c1 | -0.2 | 11% | -8% | 32µM* | 4.5 | 7% | -6%
CCC(=O)Nc1cccc(C2=NOC3(C2)C[C@H](C(N)=O)N(C(=O)Cc2ccc([N+](=O)[O-])cc2)C3)c1 (stereo partly specified) | -5.6 | -1.4% | nt | 1.2% | -2.8 | 12% | 5%

Remaining list, next part:
SMILES | Menin-MLL FL inh | PINK1 modulator | gsp agonist | ClpP mod | D2 ag | Sfp inh | gsp antagonist
CCOC(=O)C1CCCN(C(=O)C2CCN(S(=O)(=O)c3cnc[nH]3)CC2)C1 (stereo unspecified) | -2.7 | 0.0% | -15% | -0.8% | 0.3 | 1% | 7%
CCCCC(=O)NC(=S)Nc1cccc(C(=O)O)c1 | -1.2 | 2.7% | 24% | nt | 4.2 | 19% | -7%
CC(=O)N1c2ccc(S(=O)(=O)N(C)CC(=O)NC(C)c3ccccc3)cc2CC1C (stereo unspecified) | -5.1 | 0.5% | 29% | -3.5% | -2.0 | 2% | 0%
CCOC(=O)c1c(CSC(=N)N)n(C)c2cc(Br)c(OC(C)=O)cc12 | -1.4 | 5.7% | -10%[15.4 µM] | nt | -7.1 | 0% | -10%
O=C(O)CSc1nnc(-c2ccncc2)n1C1CCCCC1 | -0.5 | -0.1% | 4% | -0.2% | -1.3 | -1% | 2%
CCOC(=O)C1=C(C)C(c2ccc(OC)cc2)NC(=O)N1 (stereo unspecified) | -14 | -0.1% | 6% | 1.0% | -3.9 | 12% | 9%
C=CCn1cnc2c(nnn2-c2ccc(OC)c(OC)c2)c1=O | 0.5 | 0.0% | 5%[15.4 µM] | -0.5% | -1.6 | 17% | -6%
CCOC(=O)C1CCN(Cc2cn[nH]c2-c2ccccc2)CC1 | 1.3 | 0.4% | 0% | 0.2% | -1.4 | -15% | 5%
Cc1ccc(OCC(=O)OCc2nc3scc(-c4ccccc4)c3c(=O)[nH]2)cc1C | nt | -1.1% | -42%[inhibitor] | -8.3% | -9.6 | nt | 7%
Cc1ccc(C(=O)Nc2ccccc2-c2ccccc2)cc1S(=O)(=O)Nc1ccccc1 | nt | 15% | nt | -7.2% | 1.6 | nt | -20%
COC(=O)c1ccc(CNC(=O)c2cc3ccccc3oc2=O)cc1 | -1.6 | -0.2% | 17% | nt | 1.4 | 9% | 9%
CC(C)C(=O)N1CCC2(CC1)Oc1ccc(Cl)cc1C(=O)C21CC(c2cccnc2)=NO1 (stereo unspecified) | 0.5 | -0.7% | -2% | -12% | 2.3 | -3% | -4%
CCOCCCN1CC(C(=O)NCCc2ccccc2)CC1=O (stereo unspecified) | -0.4 | nt | -37% | 1.4% | -1.2 | 2% | 3%
CNC(=O)CSc1nc2nc(C)cc(C)n2n1 | 0.0 | 2.7% | 13% | 2.3% | 0.0 | -6% | 10%
O=C1NN(c2ccccc2)C(=O)C2C1C1C=CC2C12CC2 (stereo unspecified) | -1.5 | -2.6% | -42%[inhibitor] | -3.1% | 2.2 | 23% | 4%
COc1ccc(NC(=O)CC(C)(C)C)c([N+](=O)[O-])c1 | 0.0 | ? | -3% | 0.8% | -1.4 | 5% | 2%
CCC(C)NC(=O)Nc1ccc(C)cc1C (stereo unspecified) | -0.4 | 3.7% | -60%[inhibitor] | -0.5% | -2.5 | ? | -2%
CC(OC(=O)/C=C/c1cccs1)C(=O)Nc1ccc(S(N)(=O)=O)cc1 (stereo unspecified) | 2.1 | -1.4% | 8% | -2.2% | -1.8 | 8% | 1%
COc1ccc(Cc2nc3ccc(C(=O)NC(C)c4cnn(C)c4)cc3o2)cc1 (stereo unspecified) | nt | -2.2% | 4% | -4.2% | 0.2 | 6% | 0%
Cc1cccc(-n2ncc3c(NCc4cccnc4)ncnc32)c1 | 0.1 | 1.6% | 5% | 5.2% | -3.6 | -3% | -14%
CCc1nnc(NC(=O)CN2C(=O)c3ccccc3S2(=O)=O)s1 | 3.2 | nt | 3% | -0.9% | -1.3 | 12% | -4%
O=C1CC(Sc2nnc(-c3ccccc3)o2)C(=O)N1c1ccccc1 (stereo unspecified) | 0.7 | -1.0% | ? | 16% | 0.5 | 22µM* | -3%
CC1CCCN(CC(=O)Nc2cccc([N+](=O)[O-])c2)C1 (stereo unspecified) | 1.6 | 1.9% | -26%[15.4 µM] | -1.9% | -6.7 | 14% | 18%

Screening data (PubChem)
